Calb FLC = C. albicans growth inhibition with fluconazole, primary screen, CaCi-2 strain, Alamar Blue fluorescence. actives 0.57% (n = 300,000). growth inhibition, % (concentration not given with the values). C. albicans CaCi-2 (fluconazole-resistant clinical isolate) + fluconazole, 48 h;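 active means most replicates above 75%; inconclusive means exactly half above 75%; inactive means most below 75%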;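 further: all wells also contain fluconazole at 8 µg/ml as a sub-toxic cotreatment; 0% = median of DMSO wells and 100% = median of geldanamycin control wells; wells of about 8 µL received 7.5 nL stock; the first replicate is given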
Ecoli rRNA inh = reduced GFP signal of wild-type E. coli, primary screen, bacterial rRNA inhibitor project, GFP/RFP fluorescence, OD600, single point; E. coli WT GFP vs humanized-ribosome RFP mutants, 24 h; stronger effect = lower value; DMSO median 0, no signal -100; GFP signal change (wild-type ribosome), % (test concentration not listed); actives 1.6% (n = 350,000);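 active means significant combined selectivity score with lowered wild-type GFP, culture density cut under 30%, mutant RFP and density less affected; inactive means any of these conditions unmet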; further: one replicate is shown; some compounds called inactive have numbers as strong as hits
T cruzi repl = inhibitors of intracellular T. cruzi growth, primary screen, luminescence, NIH3T3 host cells; actives 1.4% (n = 300,000); inhibition, % (concentration not given with the values); T. cruzi beta-gal in NIH3T3, 90 h;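 active means mean inhibition across valid replicates above about 55%, limit read from the data; inconclusive means mean below that limit but half or more replicates reach it; inactive means mean below it, under half of replicates reach it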;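 further: signal also drops with host cell toxicity which is not excluded here; 0% = plate median of DMSO wells and 100% = zero luminescence signal; higher percent means less beta-gal luminescence so fewer parasites; stock transfer was 50 nL into about 50 µL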
Beta cell apopt = inhibitors of cytokine-induced beta cell apoptosis, primary screen, luminescence | AID 435005, 2010 | INS-1E cytokine-induced death, ATP luminescence, 48 h; percent of positive-control rescue, neutral wells zero | protection from apoptosis, % (test concentration not listed) | actives 0.8% (n = 300,000);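 active means all replicates at 75% or more, or half of them and the mean; inconclusive means half reach 75% but not the mean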;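 further: 0% = cytokine-treated negative control wells and 100% = positive control rescue; higher means more ATP so stronger rescue from cytokine killing; wells of about 40 µL received 100 nL stock; the first replicate is given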
RanGTP-Imp inh = inhibitors of RanGTP-importin-beta interaction, primary screen, biochemical, FRET, CFP-Ran, YFP-importin-beta, homogeneous | Ran GTPase (GTP-bound) - importin-beta complex | cell-free CFP-Ran/YFP-importin-beta FRET ratio | inhibition, % (no concentration beside the values) | actives 1.1% (n = 300,000) | AID 2216, 2009;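 active means most replicates above 15%; inconclusive means exactly half above 15%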;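 further: 0% = DMSO wells and 100% = Ran loaded with GDP instead of GTP; wells of about 40 µL received 100 nL stock; the first replicate is given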
Vif A3G = inhibitors of Vif binding to APOBEC3G peptide, primary screen, biochemical, TR-FRET, GST-Vif 1-94, biotin-A3G peptide, dose response retest (AID 1117319). inhibition, %; hits with a dose series show IC50 in µM. TR-FRET GST-Vif / biotin-A3G peptide binding; higher % means a stronger effect; test concentration not given here; strong numbers were not always called active. Virion infectivity factor (Human immunodeficiency virus type 1 group M subtype B (isolate …. actives 0.57% (n = 260,000);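 active means above the screen mean plus three standard deviations and confirmed in dose response; inconclusive means results disagree or hit not tested in dose response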;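 further: Vif residues 1-94 fused to GST binding biotinylated APOBEC3G peptide 110-148; 0% = full assay without inhibitor and 100% = GST in place of GST-Vif; retest series ran down from 100 µM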
A1 inh = caspase 3/7 activation in MEF A1-2A-BIM cells, primary screen, A1 inhibitor project, cell-based, luminescence, HTS | actives 0.066% (n = 330,000) | Caspase-Glo 3/7 luminescence, 3 h; percent of clofoctol response, vehicle zero | caspase activation, % (no concentration beside the values);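 active means over half of replicate activation scores above 10%, or exactly half above 10 with the replicate mean above 10; inconclusive means replicate mean below 10 yet half the replicates above 10; inactive means over half of replicates below 10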;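 further: wells of about 30 µL received 50 nL stock; many hits fall short of the cut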
MLL AF4-AF9 inh = inhibitors of AF4 peptide binding to AF9, primary screen, biochemical, AlphaScreen, biotin-AF4 peptide, FLAG-AF9, single point; Protein AF-9 (Homo sapiens), P42568; inhibition, % at 10 µM; actives 0.47% (n = 350,000);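 active means every replicate reaching a set inhibition limit, whatever the replicate mean, cut at about 25% in these data; inconclusive means mean inhibition reaches that limit but some replicates miss it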;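 further: 0% = plate neutral control median and 100% = total signal loss; the record names both 10 and 1 µM as test concentration; the first replicate is given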
Target sequence (P42568 whole entry, looked up): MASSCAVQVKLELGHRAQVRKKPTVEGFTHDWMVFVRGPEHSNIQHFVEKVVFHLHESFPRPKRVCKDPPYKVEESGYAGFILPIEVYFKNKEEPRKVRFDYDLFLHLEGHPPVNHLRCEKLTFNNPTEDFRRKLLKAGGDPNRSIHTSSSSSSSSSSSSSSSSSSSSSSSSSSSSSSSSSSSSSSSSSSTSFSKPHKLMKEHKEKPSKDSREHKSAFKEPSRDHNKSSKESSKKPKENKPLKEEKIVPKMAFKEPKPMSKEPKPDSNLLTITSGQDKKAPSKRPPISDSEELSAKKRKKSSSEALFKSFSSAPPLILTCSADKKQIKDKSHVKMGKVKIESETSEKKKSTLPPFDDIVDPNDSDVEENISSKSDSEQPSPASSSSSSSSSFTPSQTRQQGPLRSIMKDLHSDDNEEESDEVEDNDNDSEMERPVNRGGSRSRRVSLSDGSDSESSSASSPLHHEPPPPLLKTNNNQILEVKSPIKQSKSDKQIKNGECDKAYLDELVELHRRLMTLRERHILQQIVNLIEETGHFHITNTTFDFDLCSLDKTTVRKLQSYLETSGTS
Ecoli rRNA inh OD600 = further read-out of Ecoli rRNA inh, marked with its call; OD600 change, %; measured here: OD600 growth;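 optical density of the mix in the first replicate; 0 = DMSO median and -100 = no signal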
Ecoli rRNA inh RFP = second read-out of Ecoli rRNA inh, no call of its own (marks repeat the call); RFP signal change, %; measured here: RFP humanized mutant strains;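 first replicate; 0 = DMSO median and -100 = no signal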
Active calls of the source: *; u = inconclusive; x = no result given; & = joins results of further samples. Only part of the results is shown (hit frequency here may not be typical).

SMILES	Calb FLC	Ecoli rRNA inh	Ecoli rRNA inh OD600	Ecoli rRNA inh RFP	T cruzi repl	Beta cell apopt	RanGTP-Imp inh	Vif A3G	A1 inh	MLL AF4-AF9 inh
Cc1cc(C)cc(OCC(O)CN2CCN(Cc3ccc4c(c3)OCO4)CC2)c1 (stereo not given)	-61	8	7	0.6	13	1	-0.7	u	-0.3	5.9
COc1ccc(C(NC(=O)c2cccnc2)c2cc(Cl)c3cccnc3c2O)cc1OC (stereo not given)	7	x	x	x	u	91*	-50	16%	0.3	x
Cn1c(=O)oc2cc(S(=O)(=O)NCCC(=O)N3CCN(c4ccccc4)CC3)ccc21	0	0	1	-1.9	-3	-9	-1.0	-9%	-0.4	1.4
COc1ccc(C2=NOC(C(=O)Nc3cc(C)on3)C2)cc1 (stereo not given)	6	6	2	2.5	-6	-7	2.6	-1%	0.1	-4.6
CC(C)CN1CCC(=O)N([C@H](COc2ccccc2)c2ccccc2)CC1	-2	-17	-11	-8.4	11	-2	0.2	x	1.1	-0.5
Cc1nc(C)c(CC(=O)N/N=C/c2ccc(O)cc2)c(=O)[nH]1	9	10	12	4.9	-3	-5	4.2	-5%	1.0	-9.8
CCOC(=O)c1ccc(NC(=O)C2=C(C)Nc3nc(CCCO)nn3C2c2ccc(OC)cc2)cc1 (stereo not given)	1	x	x	x	3	-10	-0.1	-3%	0.5	x
CC(=O)Oc1c(C)cc(O)c2ccccc12	1	x	x	x	7	-2	2.9	22%	1.9	x
CC(=O)c1ccc(NC(=O)[C@@H]2CCCN2C2=NS(=O)(=O)c3ccccc32)cc1	x	10	16	1.1	x	6	x	-15%	0.9	-3.3
Cc1ccc(Cn2nnc3c(=O)[nH]c(C4CCN(C(=O)Cc5cccs5)CC4)nc32)cc1	34	-33	-28	-2.9	-9	2	1.3	12%&-3%	0.2	-62
COC(=O)C(NC(=O)c1ccco1)(Nc1ccc(Br)cn1)C(F)(F)F (stereo not given)	2	x	x	x	-12	-7	8.3	-3%	0.5	x
COc1cccc2[nH]c3c(N4CC(C)CC(C)C4)ncnc3c12 (stereo not given)	28	x	x	x	57*	x	1.4	-1%	x	x
O=C(Cc1ccccc1)NC(=S)Nc1ccc2oc(-c3ccccc3F)nc2c1	-5	x	x	x	5	6	0.7	-17%	-1.7	x
CCCOP(=O)(c1ccc(N(C)C)cc1)C(O)c1ccc(N(C)C)cc1 (stereo not given)	-13	1	3	2.2	-11	-1	u	9%	0.7	3.3
O=C(C1CC(=O)N(c2ccccc2)C1)N1CCC(c2nc3ccccc3[nH]2)CC1 (stereo not given)	1	-2	7	-2.4	-1	-4	-2.3	9%	0.1	0.0
Cc1ccc(S(=O)(=O)Cn2nnnc2C(C)N2CCN(C(=O)c3ccco3)CC2)cc1 (stereo not given)	11	-4	1	6.8	4	x	-0.8	0%	x	4.3
CCCCCOC(=O)Nc1nnc(CCCCC)s1	-31	10	-10	4.8	8	-7	-2.4	-3%	0.0	4.8
Cc1[nH]c(=O)[nH]c(=O)c1CSCC(=O)OCC(=O)Nc1ccccn1	0	15	10	-2.0	-1	-4	0.3	-2%	-0.2	1.4
CN(Cc1ccco1)c1ncnc2ccc(-c3ccc4c(ccn4C)c3)cc12	x	18	7	8.4	x	20	x	x	u	6.0
O=C(NCc1ccccc1)C(c1ccco1)N(C(=O)c1cnccn1)c1ccc(F)cc1 (stereo not given)	-3	x	x	x	-9	0	-14	-10%	0.1	x
COCc1nnc(NC(=O)CC(C)C)s1	x	x	x	x	-17	1	0.4	-4%	0.9	x
COc1ccc2[nH]c(C(=O)N3CCN(Cc4ccccc4)CC3)cc2c1OC	0	-10	-5	0.9	-15	0	1.6	1%	-0.7	-9.5
O=C(c1ccc([N+](=O)[O-])cc1)N(c1ccccn1)c1ccccn1	20	14	6	-4.4	-14	-4	-3.2	10%	0.6	-1.1
COc1ccc2c(c1)CC(N1CCN(C)CC1)c1cc(OC)ccc1S2 (stereo not given)	-33	-28	-36	0.8	26	5	5.6	x	0.3	15
COc1cc(C2/C(=C(/O)c3ccc(F)cc3)C(=O)C(=O)N2CCCC(=O)O)ccc1O (stereo not given)	0	x	x	x	-5	-4	0.5	u	1.2	x

More compounds.
SMILES	Calb FLC	Ecoli rRNA inh	Ecoli rRNA inh OD600	Ecoli rRNA inh RFP	T cruzi repl	Beta cell apopt	RanGTP-Imp inh	Vif A3G	A1 inh	MLL AF4-AF9 inh
CCC(=O)Nc1cccc(-c2nc3ccccc3o2)c1	11	x	x	x	-5	-3	9.5	-6%	0.2	x
CN(Cc1ccccc1F)C(=O)CNC(=O)Cc1cccc2ccccc12	u	6	6	1.6	4	-8	-2.3	x	-0.4	-1.0
COc1cccc(CC(NC(C)=O)C(=O)NC2CCN(c3c4c(nc5ncnn35)CCC4)CC2)c1OC (stereo not given)	21	x	x	x	-4	1	u	-3%	0.6	x
Cc1ccccc1CSc1nc2n(n1)C(c1cccs1)C1=C(CCCC1=O)N2 (stereo not given)	-1	x	x	x	12	7	u	0%&-6%	0.0	x
NC(=O)C1=C[C@@H](c2csc3ccccc23)C[C@@H](OCc2ccc(CO)cc2)O1	24	-13	-11	29	7	6	1.1	x	-0.5	-1.5
O=C(CCCCCN1C(=O)c2ccccc2C1=O)Nc1ccc(F)cc1	-6	x	x	x	9	-3	1.5	23%	-0.4	x
CCc1c(O)c(-c2ccccc2)c(=O)n(-c2ccccn2)c1-c1ccccc1	20	-9	-1	1.1	-27	2	u	-15%	2.3	x
N#C/C(=C/c1cn(-c2ccccc2)nc1-c1cccc(S(=O)(=O)N2CCOCC2)c1)C(=O)NCc1ccco1	10	10	16	-2.8	-2	-3	4.5	x	0.0	-49
CCCN1CCN(CCCNC(=O)c2ccc3nc(N4CCC(C)CC4)sc3c2)CC1	6	1	6	4.0	5	2	8.0	x	0.0	5.9
CCOCCCNC(=O)c1cn(C)c2ccc(S(=O)(=O)N3CCCCC3)cc2c1=O	10	1	-4	-1.4	3	-8	-0.8	x	0.4	-3.7
O=C(CCc1ccccc1)NNc1cc(N2CCCCC2)nc(N2CCCCC2)n1	26	18	3	2.4	57*	2	71*	-2%	0.3	13
ClCCCc1cn(C[C@H]2CC[C@@H]([C@@H]3CC[C@H](Cn4cc(CCCCl)nn4)O3)O2)nn1	-6	4	5	-6.2	-6	-4	-0.5	x	0.0	0.3
COc1ccccc1CCNC(=O)Cn1c(=O)oc2ccccc21	1	1	-3	-3.1	-18	-9	2.7	x	-0.9	0.0
O=C(CCN1C(=O)C2C3CCC(C3)C2C1=O)Nc1ccc([N+](=O)[O-])cc1 (stereo not given)	1	-2	-1	-0.5	-5	2	2.9	u	0.8	-1.7
COc1ccc(NC(=O)CS(=O)c2ccc(F)cc2)cc1 (stereo not given)	-2	11	13	-2.7	-30	-2	-1.2	x	1.9	-0.5
COc1ccc(CNC(=O)[C@H](Cc2c[nH]c3ccccc23)NC(C)=O)cc1OC	-1	6	7	1.2	-10	-6	0.7	x	-0.3	0.6
Cc1ccccc1OC(C)C(=O)NCc1cccnc1 (stereo not given)	-4	12	12	2.5	-16	-3	0.6	x	0.0	-2.8
CCOc1ccc(CSC2=NCCN2)cc1[N+](=O)[O-]	-18	6	9	0.0	42	0	1.4	x	0.7	1.9
CCN(CC(=O)NCc1ccc(Cl)cc1)C(=O)COc1ccc(Cl)cc1Br	-1	-58	-79	-16	12	2	5.1	-2%	1.4	-11
COc1ccc(NC(=O)CSc2nc3ccccc3nc2N2CCCC2)cc1	-8	3	-5	-1.7	15	3	2.5	x	-0.3	0.2
S=c1[nH]nc(COc2ccccc2)n1/N=C/C(Cl)=C/c1ccccc1	4	x	x	x	12	-11	4.5	5%	-0.4	x
CCCNc1c(NC(=O)C2CCC(C)CC2)c(=O)oc2ccccc12 (stereo not given)	-3	9	9	0.8	4	4	1.5	13%	0.8	-0.7
Cc1cccc(NC(=O)c2ccc(C3SCC(=O)N3CCc3ccccc3)cc2)c1C (stereo not given)	-7	x	x	x	-30	1	-1.3	-5%	0.1	x
O=C(NCc1ccc(Cl)cc1)N1CCOCC1	4	10	10	2.7	-13	2	-0.2	x	0.6	-0.3
O=C(c1ccc(OC2CCN(CCc3ccccc3)CC2)cc1)N1CCCC(CO)C1 (stereo not given)	-3	3	-2	-4.3	-19	-7	-1.0	8%	-0.1	-3.6
COCCCNC(=S)NCCNc1nc2cc(C)cc(C)c2cc1C#N	2	-21	-21	-0.1	12	1	0.2	-6%	0.5	-5.1

A run of entries taken from the entries so far, for reference:
SMILES	Calb FLC	Ecoli rRNA inh	Ecoli rRNA inh OD600	Ecoli rRNA inh RFP	T cruzi repl	Beta cell apopt	RanGTP-Imp inh	Vif A3G	A1 inh	MLL AF4-AF9 inh
Cc1ccccc1OC(C)C(=O)NCc1cccnc1 (stereo not given)	-4	12	12	2.5	-16	-3	0.6	x	0.0	-2.8
CCOc1ccc(CSC2=NCCN2)cc1[N+](=O)[O-]	-18	6	9	0.0	42	0	1.4	x	0.7	1.9
CCN(CC(=O)NCc1ccc(Cl)cc1)C(=O)COc1ccc(Cl)cc1Br	-1	-58	-79	-16	12	2	5.1	-2%	1.4	-11
COc1ccc(NC(=O)CSc2nc3ccccc3nc2N2CCCC2)cc1	-8	3	-5	-1.7	15	3	2.5	x	-0.3	0.2
S=c1[nH]nc(COc2ccccc2)n1/N=C/C(Cl)=C/c1ccccc1	4	x	x	x	12	-11	4.5	5%	-0.4	x
CCCNc1c(NC(=O)C2CCC(C)CC2)c(=O)oc2ccccc12 (stereo not given)	-3	9	9	0.8	4	4	1.5	13%	0.8	-0.7
Cc1cccc(NC(=O)c2ccc(C3SCC(=O)N3CCc3ccccc3)cc2)c1C (stereo not given)	-7	x	x	x	-30	1	-1.3	-5%	0.1	x
O=C(NCc1ccc(Cl)cc1)N1CCOCC1	4	10	10	2.7	-13	2	-0.2	x	0.6	-0.3
O=C(c1ccc(OC2CCN(CCc3ccccc3)CC2)cc1)N1CCCC(CO)C1 (stereo not given)	-3	3	-2	-4.3	-19	-7	-1.0	8%	-0.1	-3.6
COCCCNC(=S)NCCNc1nc2cc(C)cc(C)c2cc1C#N	2	-21	-21	-0.1	12	1	0.2	-6%	0.5	-5.1

From PubChem
